V. cholerae QS = Vibrio cholerae quorum sensing activators, luminescence (AID 686977). V. cholerae quorum sensing reporter, luminescence, 6 h; higher luminescence means a stronger effect; most inactives read 0. one-dose luminescence at 50 µM unless noted; EC50 in µM for titrated hits. 9,400 tested, under 10 active;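 active = light above mean plus 3 SD and confirmed in a dose series; inconclusive = above that limit without a clear retest; inactive = below it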;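 also: raw light counts without normalisation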
* hit, by the source's call; ? = inconclusive; [ ] = dose if it differs, or a comment. Some of the compounds tested; the hit share may differ from the screen's.

SMILES | V. cholerae QS
CCCS(=O)(=O)N1CCN(C(=O)CCC2CCCC2)CC1 | 40
Cc1ccc(Cn2c(CN3CC(C)OC(C)C3)nc3c2c(=O)n(C)c(=O)n3C)cc1 (stereo not drawn) | 0
COC(=O)CSc1nc2ncccc2[nH]1 | 0
C=CCN1C(c2ccc(OCC)cc2)=CS/C1=C(\C#N)c1nnc2n1CCCCC2 | 40
Cn1c(C(=O)N2CCN(C3CCCCC3)CC2)cc2c(=O)n(C)c3ccccc3c21 | 40
Cc1cc(C)nc(-n2c(C)nc3cc(Cl)ccc3c2=O)c1 | 280
O=C1CC(N2CCOCC2)C(=O)N1CCc1ccccc1 (stereo not drawn) | 0
Cc1cccc(OCc2nc(C#N)c(N3CC(C)CC(C)C3)o2)c1 (stereo not drawn) | 0
N/C(=N\c1nc2c(c(=O)[nH]1)CCC2)Nc1cccc2ccccc12 | 40
COc1ccc(-c2nnc(SCC(=O)Nc3cc(F)ccc3C)o2)cc1 | 0
O=C(Nc1nnc(C2CC2)s1)c1ccccn1 | 0
Cc1ccc2nc(NC(=O)c3ccc(Cl)s3)sc2c1 | 0
CC(C)CCn1c(=O)c2ccccc2c2ccccc2c1=O | 0
CCOc1cc2c3c(c1)C1(Nc4ccccc4S1)C(=O)N3C(C)(C)CC2C (stereo not drawn) | 280
CCCCCn1c(CN2CCN(CCO)CC2)nc2c1c(=O)n(C)c(=O)n2C | 0
COc1cc(C)c(Br)cc1S(=O)(=O)N1CCOCC1 | 40
COCCCNc1ncnc2c1cnn2-c1ccc(C)cc1C | 40
COc1ccccc1N1CCN(Cc2ccc(O)c3ncccc23)CC1 | 0
O=C(NCc1ccc(F)cc1)c1cnc2n(c1=O)CCS2 | 0
O=C(O)c1ccc(NS(=O)(=O)c2cccc3cccnc23)cc1 | 0
CN(C)CCCO[C@@H]1[C@H]2OC(C)(C)O[C@H]2O[C@@H]1[C@H](O)CO | 0[10 µg/mL]
Clc1ccc(C2Nc3ccccc3-n3cccc32)cc1 (stereo not drawn) | 40
CCn1nnc(NC(=O)C(C)Oc2ccc(Cl)cc2Cl)n1 (stereo not drawn) | 80
CCCCN(C)CCNC(=O)Cn1c(=O)sc2ccccc21 | 0
CCOC(=O)c1oc2ccccc2c1NC(=O)COc1ccc(F)cc1 | 0
OCc1ccccc1N=c1ssnc1Cl | 240
CC1CCc2nn(CC(=O)NC3CCCC(C)C3C)cc2C1 (stereo not drawn) | 40
O=C(NCc1cccnc1)c1ccc(Cl)c(Cl)c1 | 0
COc1ccccc1C(=O)CSc1n[nH]c(N)n1 | 0
CCOc1ccc(C2CC(c3cccc(Cl)c3)n3nc(N)nc3N2)cc1 (stereo not drawn) | 0
CCOC(=O)C1=C(CSc2nnnn2C)N(C)C(=O)NC1c1ccccc1 (stereo not drawn) | 0
Nc1sccc1C(=O)c1ccc(Cl)cc1 | 40
CN(C)C(CNS(=O)(=O)c1ccc(F)cc1)c1cccnc1 (stereo not drawn) | 0
Cc1ccc(N2CC(C(=O)N3CCc4ccccc43)CC2=O)cc1 (stereo not drawn) | 0
C=CCn1c(O)c(C(C)=NCCC2=CCCCC2)c(=O)[nH]c1=O | 0
CCOc1ccc(N(CC(=O)NCC2CCCO2)S(=O)(=O)c2ccc(SC)cc2)cc1 (stereo not drawn) | 0
COc1ccc(OC)c2[nH]c(=O)c(CCNC(=O)C(C)(C)C)cc12 | 0
C=CCn1c(=O)/c(=C2/SC(C)=C(C)N2CC)s/c1=C1/C(=O)N(CC)C(=S)N1c1ccccc1 | 0
CCOc1ccc(CN(Cc2ccco2)C(c2cccs2)c2nnnn2C(C)(C)C)cc1 (stereo not drawn) | 0
COc1ccc(OC)c(C2CC(=O)NC(SC)=C2C#N)c1 (stereo not drawn) | 0
CC(C)N(C(=O)Cn1cnc2c(cnn2-c2ccccc2Cl)c1=O)C(C)C | 280
CCOC(=O)C1=C[C@]2(CC)CCCN3CCc4c(n1c1ccccc41)[C@@H]32 | 0[10 µg/mL]
Cc1cccc(CCNC(=O)CN(C)S(=O)(=O)c2ccc3c(c2)c(=O)n(C)c(=O)n3C)c1 | 1000
CN1CCC(=C2c3ccccc3Sc3ccccc32)CC1 | 40[10 µg/mL]
COC(=O)c1cc(-c2ccc(Br)cc2)on1 | 0
CCN1CC(O)=C(c2nc3ccccc3s2)C1=N | 0
COc1ccc2nc(NC(=O)C(NS(=O)(=O)c3cccc4nsnc34)C(C)C)sc2c1 (stereo not drawn) | 0
O=C1CCCc2[nH]nc(-c3cccnc3)c21 | 40
CC1(C)[C@@H](OC(=O)CCC(=O)O)CC[C@]2(C)[C@H]3C(=O)C=C4[C@@H]5C[C@@](C)(C(=O)O)CC[C@]5(C)CC[C@@]4(C)[C@]3(C)CC[C@@H]12 | 0[10 µg/mL]
COCC(=O)Nc1sc2c(c1C(=O)OC)CCC(C)C2 (stereo not drawn) | 0
C[C@@H]1CC[C@H]2[C@@H](C)C(=O)O[C@@H]3OC4(C)CC[C@@H]1[C@]32OO4 | 0[10 µg/mL]
O=C(Nc1ccc(SC(F)F)cc1)C1=COCCO1 | 0
Cn1c(=O)cc(OCCCC(=O)NCc2ccc3c(c2)OCO3)c2ccccc21 | 0
NS(=O)(=O)c1ccc(NC(=O)C2COc3ccccc3O2)cc1 (stereo not drawn) | 0
CC1(C)CC(=O)c2sc(NC(=O)C3COc4ccccc4O3)nc2C1 (stereo not drawn) | 0
COc1cc(C)ccc1S(=O)(=O)N1CCN(C23CC4CC(CC(C4)C2)C3)CC1 | 0
COCCn1c(C)cc(C(=O)COC(=O)c2ccc(NC(=O)CC#N)cc2)c1C | ?
NCCCCCC(=O)O | 760[10 µg/mL]
CCOc1cc(C)nc(N2CCCC(C(=O)NCc3ccccc3F)C2)n1 (stereo not drawn) | 0
O=C(CSc1nnc(Cc2cccs2)n1-c1ccccc1)Nc1ccc2c(c1)OCCO2 | ?

Next section.
SMILES | V. cholerae QS
C#CCOc1c(Br)cc(/C=N/O)cc1OCC | 0
CC(C)(C)c1ccc(OCC(=O)NCCN2CCCC2)cc1 | 0
Cc1ccc(CNC(=O)CSCC(=O)O)cc1 | 40
Cc1cc2occ(CC(=O)Nc3nnc(C4CC4)s3)c2cc1C | 0
CCOC(=O)C1CCN(C(=O)C2c3ccccc3C(=O)N(C)C2c2ccc(OC)cc2)CC1 (stereo not drawn) | 0
Cc1ccc(C(=O)CC(C(=O)O)c2cn(CCC#N)c3ccccc23)cc1 (stereo not drawn) | 40
Oc1ccc(Cl)cc1-c1cc(-c2ccccc2)n[nH]1 | 0
COC(=O)c1cc2ccccc2c(=O)s1 | 0
COC(=O)c1cc(-c2ccc(OC)c(OC)c2)n[nH]1 | 240
Cn1cnnc1SC(C(=O)Nc1cccc(C(F)(F)F)c1)c1ccccc1 (stereo not drawn) | 0
COc1cccc(Cn2nnc(C(=O)NCCc3ccc(Cl)cc3)c2N)c1 | 40
CCN(CC)CCNC(=O)c1cc(Br)c(N)cc1OC | 40[10 µg/mL]

Quoted from the listing:
Reading of CCCCN(C)CCNC(=O)Cn1c(=O)sc2ccccc21 under V. cholerae QS: 0
Reading of Cc1cccc(CCNC(=O)CN(C)S(=O)(=O)c2ccc3c(c2)c(=O)n(C)c(=O)n3C)c1 under V. cholerae QS: 1000
Reading of C=CCn1c(=O)/c(=C2/SC(C)=C(C)N2CC)s/c1=C1/C(=O)N(CC)C(=S)N1c1ccccc1 under V. cholerae QS: 0
Reading of CC1CCc2nn(CC(=O)NC3CCCC(C)C3C)cc2C1 (stereo not drawn) under V. cholerae QS: 40
Reading of CCOC(=O)C1=C[C@]2(CC)CCCN3CCc4c(n1c1ccccc41)[C@@H]32 under V. cholerae QS: 0[10 µg/mL]
Reading of COc1ccc(-c2nnc(SCC(=O)Nc3cc(F)ccc3C)o2)cc1 under V. cholerae QS: 0
Reading of CC(C)(C)c1ccc(OCC(=O)NCCN2CCCC2)cc1 under V. cholerae QS: 0

Another view of part of the listing above.
canonical_smiles: Cc1ccc(CNC(=O)CSCC(=O)O)cc1
- V. cholerae QS: 40
canonical_smiles: Cc1cc2occ(CC(=O)Nc3nnc(C4CC4)s3)c2cc1C
- V. cholerae QS: 0

(list continues)
SMILES | V. cholerae QS
CCOC(=O)N1CCN(C2=NC3(CCCCC3)C(C#N)C(=O)N2)CC1 (stereo not drawn) | 0
CCCCNC(=O)c1c(C)cc(=O)oc1C | 0
COc1ccc(/C=C2\SC(=O)N(CCNC(=O)Cn3cnnn3)C2=O)cc1 | 280
O=S(=O)(c1cccc2cccnc12)N1CCOCC1 | 0
CC(=O)N(CCCCN1C(=O)c2ccccc2C1=O)c1ccc(C)cc1 | 0
C=CCc1c(C)nc(C)nc1N/N=C/c1ccc(N(C)C)cc1 | 40
CC(=O)NC(=S)c1c(N)n(Cc2ccccc2)c(=O)n(C)c1=O | 80
COc1ccc(OC)c(C2SCCN2S(=O)(=O)c2cccc(C(F)(F)F)c2)c1 (stereo not drawn) | 0
Oc1c(I)cc(Cl)c2cccnc12 | 0[10 µg/mL]
O=C(CCn1c(=O)[nH]c2ccsc2c1=O)N1CC(=O)N(CCc2ccccc2)C(=O)C1 | 0
CCc1ccccc1N1C(=O)c2cccc3c(N4CCOCC4)c([N+](=O)[O-])cc(c23)C1=O | 40
Nc1nc2n(n1)C(c1ccco1)CC(c1ccc(F)cc1)N2 (stereo not drawn) | 40
CNP1(NC)=Nc2nn(-c3ccccc3)c(N)c2C(c2ccccc2)=N1 | 0
C=Cc1c(C)c2cc3nc(cc4[nH]c(cc5nc(cc1[nH]2)C(C)=C5CCC(=O)O)c(CCC(=O)O)c4C)[C@@]1(C)C3=CC=C(C(=O)OC)C1C(=O)OC (stereo partly drawn) | 0[10 µg/mL]
CCn1c(CCNC(=O)c2ccc(Cl)cc2Cl)n[nH]c1=S | 40
COc1ccc(-n2nnnc2SCC#CCO)cc1 | 0
O=C(CSc1nc(-c2ccccc2)cc(C(F)(F)F)n1)NCCN1CCOCC1 | 40
CCOC(=O)c1c(C)c(C(=O)NCCOC)c(C)n1CC | 0
Cc1nc2n(n1)C(c1ccccc1)C1=C(CC(c3ccco3)CC1=O)N2 (stereo not drawn) | 40
CC1(c2cnc(Nc3ccccc3)s2)CCC(=O)O1 (stereo not drawn) | 240
O=C1CSC(=S)N1CC1CCCO1 (stereo not drawn) | 0
Cc1ccc(Cl)cc1N1CCN(C(=O)Cc2cn(C)c3ccccc23)CC1 | 200
COc1cnc(NS(=O)(=O)c2ccc(N)cc2)nc1 | 40[10 µg/mL]
CCn1c(C2CC(=O)N(c3cc(C)cc(C)c3)C2)nc2ccccc21 (stereo not drawn) | 0
Cc1ccc(C(=O)C(OC(=O)CN2C(=O)c3ccccc3C2=O)c2ccccc2)cc1C (stereo not drawn) | 40
CCOC(=O)CN1C(=O)C(C)(C)Oc2ccc(C(=O)Nc3ccccc3)cc21 | 40
Cc1[nH]n(-c2ccccc2)c(=O)c1C1(C(F)(F)F)C(=O)N(c2ccc(F)cc2)C2=C1C(=O)CC(C)(C)C2 (stereo not drawn) | ?
Cc1ccc2oc(-c3cccc(NC(=O)Cc4cccs4)c3)nc2c1 | ?
CN=C1c2cc3cc(OC)ccc3n2CCN1Cc1ccccc1 | 0
Cc1cc(C)n(CC(=O)c2ccc(Br)cc2)c(=O)c1C#N | 40
CC(C(=O)Nc1ccc(Br)cc1C(=O)c1ccccc1)N1CCCCC1 (stereo not drawn) | ?
O=C(c1cccn2c(=O)c3cc(Cl)ccc3nc12)N1CCN(Cc2ccc3c(c2)OCO3)CC1 | 0
COc1cccc(NC(=O)CSc2nnc(-c3ccc(C)cc3)o2)c1 | 40
c1nc(NC2CCCC2)c2[nH]cnc2n1 | 0
Cc1cc(C(=O)CSc2nnnn2-c2ccccc2)c(C)n1CCc1ccccc1 | 0
c1ccc2c(c1)CC1(CCCC1)n1nnnc1-2 | 320

A draw from above in order of molar mass, smallest number first:
SMILES | V. cholerae QS
COc1cccc(NC(=O)CSc2nnc(-c3ccc(C)cc3)o2)c1 | 40
Cc1cc(C(=O)CSc2nnnn2-c2ccccc2)c(C)n1CCc1ccccc1 | 0
O=C(c1cccn2c(=O)c3cc(Cl)ccc3nc12)N1CCN(Cc2ccc3c(c2)OCO3)CC1 | 0
Cc1[nH]n(-c2ccccc2)c(=O)c1C1(C(F)(F)F)C(=O)N(c2ccc(F)cc2)C2=C1C(=O)CC(C)(C)C2 (stereo not drawn) | ?

The main list resumes, starting three compounds before the break.
SMILES | V. cholerae QS
c1nc(NC2CCCC2)c2[nH]cnc2n1 | 0
Cc1cc(C(=O)CSc2nnnn2-c2ccccc2)c(C)n1CCc1ccccc1 | 0
c1ccc2c(c1)CC1(CCCC1)n1nnnc1-2 | 320
Cc1ccc2oc(=O)c3cnn(CC(=O)NCCc4ccsc4)c3c2c1 | 40
CCCCCn1c(=O)[nH]c2cc(C(=O)NCc3ccc4c(c3)OCO4)ccc2c1=O | 0
COC(=O)CSc1nnc2c3c4c(sc3nc(-n3nc(C)cc3C)n12)COC(C)(C)C4 | 0
CCCN1CCN(C(=O)C2CCN(S(=O)(=O)c3ccc4c(c3)oc(=O)n4C)CC2)CC1 | 0
CCN(CC)C(=O)C1CCN(S(=O)(=O)c2ccc(C3CNC(=O)C3)cc2)CC1 (stereo not drawn) | ?
O=C(COc1ccccc1O)c1cccs1 | 0
O=C(CSC1c2ccccc2C(=O)N1c1ccccc1)N1CCOCC1 (stereo not drawn) | 40
COC(=O)CSc1c(-c2ccccc2)c2cc(Cl)ccc2[nH]c1=O | 40
Cc1ccsc1CNn1cnnc1SCc1ccccc1F | 40
COc1cc(NC(=O)c2cccs2)c(OC)cc1NC(=O)CCn1nnc2ccccc21 | 0
Cc1cc(C(F)F)n2nc(C(=O)Nc3ccc(S(=O)(=O)NC45CC6CC(CC(C6)C4)C5)cc3)nc2n1 | 0
CCOc1ccc(OCC)c(NC(=O)CC2Oc3ccccc3NC2=O)c1 (stereo not drawn) | 0
CCCCN(CCCC)CCC(O)c1cc2c(Cl)cc(Cl)cc2c2cc(C(F)(F)F)ccc12 (stereo not drawn) | 40[10 µg/mL]
Cc1cc(NC(=S)NC(=O)CC(C)C)ccc1Br | 0
CC(=O)c1ccc(OCC(O)CN2CCOCC2)cc1 (stereo not drawn) | 0
CC1(C)Cc2c(C#N)c(NC3CCCCC3)nc(-c3ccco3)c2CO1 | 40
COC(=O)/C=C1\S/C(=N/NC(=O)c2ccccc2)NC1=O | 0

From PubChem
